From PubChem BioAssay
PABP polyA inh: PABP-poly(A) binding inhibition | P11940 | PABP-poly(A) RNA binding, fluorescence polarization | inhibition, % at 35 µM | 290,000 compounds, 1% hits;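 active = 50% or more with normal probe brightness, or confirmed in later tests; inconclusive = above 50% with abnormal brightness, or retests that disagree; inactive = below 50% or failed in later tests; about a fifth of its hits are not listed in these tables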;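 note: calls also rest on retests at 20 µM and on dose response follow-up; controls were probe without protein and protein plus probe with vehicle; some compounds called inactive have numbers as strong as hits; many hits fall short of the cut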
Target sequence (P11940 whole entry, looked up): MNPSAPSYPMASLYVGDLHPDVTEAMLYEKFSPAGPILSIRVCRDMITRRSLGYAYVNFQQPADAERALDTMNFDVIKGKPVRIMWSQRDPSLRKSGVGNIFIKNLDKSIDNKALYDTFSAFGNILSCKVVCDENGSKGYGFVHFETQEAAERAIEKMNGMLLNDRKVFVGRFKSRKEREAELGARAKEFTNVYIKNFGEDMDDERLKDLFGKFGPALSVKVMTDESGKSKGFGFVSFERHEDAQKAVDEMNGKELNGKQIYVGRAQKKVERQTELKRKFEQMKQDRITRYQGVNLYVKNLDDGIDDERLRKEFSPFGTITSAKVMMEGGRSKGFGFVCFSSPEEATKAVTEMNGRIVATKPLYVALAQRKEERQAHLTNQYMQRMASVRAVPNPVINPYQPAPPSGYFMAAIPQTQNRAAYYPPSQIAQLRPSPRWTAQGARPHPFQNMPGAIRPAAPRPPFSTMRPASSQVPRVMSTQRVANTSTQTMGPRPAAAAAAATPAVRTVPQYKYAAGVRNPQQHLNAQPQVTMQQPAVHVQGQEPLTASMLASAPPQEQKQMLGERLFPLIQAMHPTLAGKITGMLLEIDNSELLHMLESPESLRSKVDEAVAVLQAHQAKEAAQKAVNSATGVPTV
UUG fidelity: modulators of start codon recognition fidelity in yeast | S. cerevisiae UUG-firefly luciferase reporter, luminescence/redox ratio | activity score, % at 18.7 µM | 350,000 compounds, 0.13% hits | AID 602363;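 active = replicate mean at a twofold rise or more, about +100% in these data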;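 note: firefly luciferase made from a UUG start codon reports start codon fidelity; reporter light over untreated wells divided by growth signal over untreated wells; some hits fall short of that in this replicate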
MT1-MMP act inh: blocks activation of human MT1-MMP | HT1080 RFP-PRO-GFP cells, GFP/RFP ratio fluorescence, overnight; percent of plate control window, DMSO zero | P50281 | 360,000 compounds, 0.061% hits | GFP/RFP ratio change, % at 20 µM;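 active = GFP/RFP ratio change of at least 30% with cell ATP level not reduced by more than half and red fluorescence within 50% of control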; note: strong numbers were not always called active
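Assay system: HT1080 cells carrying an RFP-PRO-GFP reporter | Dosing: Single dose of 20 µM compound, 1% DMSO final | Incubation: Cells overnight before dosing, compound overnight, 37 °C, 5% CO2 | Evaluation: GFP/RFP fluorescence ratio | Control set: DMSO and RFP-L50D-GFP cell wells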
eIF4H inh: inhibitors of RNA binding by human eIF4H | Q15056 | 290,000 compounds, 0.94% hits | inhibition, % at 35 µM | AID 2012 | eIF4H fluorescence polarization binding assay;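 active = 50% or more with normal probe brightness, or confirmed in later tests; inconclusive = above 50% with abnormal brightness, or retests that disagree; inactive = below 50% or failed in later tests; about a fifth of its hits are not listed in these tables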;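 note: calls also rest on retests at 20 µM and on dose response follow-up; 0% = protein and probe with vehicle and 100% = probe without protein; strong numbers were not always called active; many hits fall short of the cut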
HIV Env fusion: inhibitors of HIV Env-mediated cell fusion; HeLa-JRFL Env/CEM21 cell fusion, luciferase; inhibition, % at 12.3 µM; 360,000 compounds, 1.1% hits; AID 651610;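 active = mean replicate inhibition score of at least 50 and every replicate individually at or above 50; inconclusive = only one of the two criteria met; inactive = mean below 50 and not all replicates reaching 50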;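 note: 0% = plate neutral controls and 100% = maraviroc near 300 nM; one replicate is shown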
Rce1 inh: yeast Ras-converting enzyme inhibition. yeast membranes, quenched prenylated peptide cleavage fluorescence. calls only. 290,000 compounds, 0.27% hits. AID 2563;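 active = fall in fluorescence gain of 50% or more versus controls, with final raw signal at or below 3038400; inconclusive = same 50% fall but final raw signal above 3038400; inactive = fall in fluorescence gain under 50%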;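 note: plate controls were neutral control wells for no effect and wells lacking membranes for full effect; tested at 10 µM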
CSC inhib: cancer stem cell inhibition. cancer stem cell-like cells viability, luminescence. inhibition, % at 7.5 µM. AID 2717. 300,000 compounds, 1.1% hits;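 active = mean at 75% or more and at least half the replicates too; inconclusive = mean and replicates disagree; tested in HMLE shEcad cells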;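 note: 0% = median of negative and 100% = median of positive control wells; the first replicate is given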
eIF4H inh retest: second read-out of eIF4H inh, no call of its own (marks repeat the call); inhibition, %; compound at 20 µM; confirmation average;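 mean of two retest wells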
PABP polyA inh retest: recorded beside PABP polyA inh, whose call it bears; inhibition, %; compound at 20 µM; confirmation repeats;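 mean of two retest wells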
MT1-MMP act inh RFP: also measured in MT1-MMP act inh; calls as there; RFP signal change, %; measured here: RFP expression control read;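 0 = vehicle wells; hits needed this value within 50% of zero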
* marks the source's active call; other numbers are inactive results; i = inactive; ? = inconclusive; / = not tested or not shown.

SMILES	PABP polyA inh	UUG fidelity	MT1-MMP act inh	MT1-MMP act inh RFP	eIF4H inh	HIV Env fusion	Rce1 inh	CSC inhib	others
COc1ccc(-c2ccc(-c3cc(=O)oc4cc(OC)c(OC)c(OC)c34)cc2)cc1OC	/	-15	2	-18	/	?	/	/
CN(CC(=O)N1CCCc2c1c(=O)oc1ccc(O)cc21)Cc1ccccc1	13	-1	1	-3	-1	-41	i	-8
O=C(NCCc1ccncc1)Nc1ccc(Cl)c(Cl)c1	-3	/	1	-1	4	3	i	8
Cc1noc2ncnc(Oc3ccc(F)cc3)c12	-9	-10	-2	2	-6	/	i	-5
O=C(N/N=C/C(Br)=C/c1ccccc1)c1ccncc1	3	/	2	1	7	-3	i	26
COc1cc(NC(=O)COc2ccccc2[N+](=O)[O-])ccc1NC(=O)c1cccs1	9	-10	-3	-1	8	9	i	/
CCCCNC(=O)/C(=C\c1ccc([N+](=O)[O-])o1)NC(=O)c1ccccc1	?	/	-14	4	?	-6	/	0
O=[N+]([O-])c1ccc(S(=O)(=O)N/N=C/c2ccsc2)cc1	15	1	-2	0	2	-3	i	-16
O=C(CN1CCC(C(=O)c2ccc3c(c2)OCCO3)CC1)Nc1ccccc1F	-1	-1	0	2	6	9	i	-6
CCN(Cc1ccncc1)S(=O)(=O)c1ccc(C(C)=O)cc1	-2	-14	1	-15	3	25	i	-9
CCN(CC)S(=O)(=O)c1ccc(N2CCCC2)c(NC(=O)Cc2ccc(OC)cc2)c1	-2	-5	-1	-2	3	54	i	38
COc1ccc2cc(S(=O)(=O)NC3CC(C)(C)NC(C)(C)C3)ccc2c1	4	-10	-3	0	-10	4	i	-4
Cc1ccsc1C(=O)N1CCC1(C)C(=O)Nc1cccc(C#N)c1 (stereo unspecified)	/	-7	2	-1	/	6	/	/
CCc1nnc(NS(=O)(=O)c2ccc(NC(=O)c3ccc(C#N)cc3)cc2)s1	13	-1	1	2	1	-6	/	-12
CC(=O)Nc1ccc(C2=NNC(=Nc3ccc(S(=O)(=O)N4CCOCC4)cc3)SC2)cc1	2	-10	-2	-4	1	-6	i	0
O=C(CSc1nnc(C2CCCCC2)n1-c1ccccc1)NCc1ccco1	-2	/	1	3	-12	/	i	52
C/C(=N\NC(=O)c1nnn(-c2nonc2N)c1-c1ccc2c(c1)OCO2)c1cccs1	2	-17	0	5	0	5	i	-5
COc1ccc(CN2CCCCCC2)cc1Br	10	-12	4	4	17	7	i	1
Cc1cccc(-c2nnc(SCC(=O)c3ccc(O)cc3O)n2C)c1	0	/	2	2	-6	-9	i	2
Cc1ccc(Cl)c(OCC(=O)Nc2ccc(S(=O)(=O)NC3=NCCCCC3)cc2)c1	/	-9	-1	0	/	2	i	/
Cc1ccc(N2CC(C(=O)N3CCN(c4ccccc4)CC3)CC2=O)cc1 (stereo unspecified)	15	/	1	0	-6	/	i	-7
COc1cc2c(cc1NC(=O)c1ccc3c(c1)OCO3)oc1ccccc12	0	/	7	1	-12	/	i	59
CC1CCN(S(=O)(=O)c2cccc3cccnc23)CC1	2	0	-2	-4	3	17	i	-24
CC(C)CCN(C(=O)Cc1ccc(Cl)c(Cl)c1)c1c(N)n(Cc2ccccc2)c(=O)[nH]c1=O	?	-20	-3	-2	4	-13	i	48
CC(NC(=O)c1cccc(N(C)C)c1)c1ccc(-n2ccnc2)cc1 (stereo unspecified)	-1	-9	-1	-3	-8	-7	i	2
CC(=O)Nc1ccc(C(=O)OCC(=O)NCc2cccs2)cc1	/	/	-2	0	/	-27	/	7
O=C(Nc1cccc(-c2cn3c(n2)SCC3)c1)c1ccc(Br)o1	24	/	1	3	14	-8	i	25
Cc1ccc(O)c(C(=O)c2cnn(C(=O)c3cccc(S(=O)(=O)N(C)C)c3)c2)c1	/	-9	-18	-13	/	-24	/	/
Cc1ccc(C(=O)N2CCN(C(=O)N3CCOCC3)CC2)cc1	-7	-10	5	1	54	/	i	/	eIF4H inh retest=2;PABP polyA inh retest=8
CCC1(CC)NC(=O)N(CC(=O)N2N=C(c3ccc(Cl)cc3)CC2c2ccco2)C1=O (stereo unspecified)	-6	17	2	1	-5	5	i	-6
CC(NS(=O)(=O)c1ccccc1)C(=O)NCc1ccco1 (stereo unspecified)	18	-20	0	-3	38	/	i	4
CCOC(=O)CCc1c(C)nc2c(c(C)nn2-c2ccc(C)cc2)c1C	-1	-16	-2	-3	-6	-8	i	-8
N#C/C(=C\c1cn(Cc2ccc(F)cc2)c2ccccc12)C(=O)NCc1ccco1	0	-9	-1	0	26	18	i	31
O=S(=O)(c1cccc2nonc12)N1CCN(c2ccccc2F)CC1	-12	-24	1	3	4	8	i	-8
Fc1cccc(-c2csc(-c3ccno3)n2)c1	5	/	2	-3	-3	-12	i	-4
COc1ccc(S(=O)(=O)N2CCN(CC(=O)Nc3c(C)n[nH]c3C)CC2)cc1OC	/	/	4	4	/	0	/	5
C=CCN(c1ccccc1OC)S(=O)(=O)c1cccc(C(=O)NCc2ccco2)c1	/	-6	1	1	/	6	/	-2
O=C1c2ccccc2C(=O)N1C(CO)C(O)c1ccc([N+](=O)[O-])cc1 (stereo unspecified)	-4	-6	-2	0	-1	-6	i	-4
COc1ccc(C(=O)N(c2ccccc2)c2nccc3ccccc23)cc1OC	/	2	-1	4	/	14	/	/
COC(=O)c1ccc(C(=O)N2CCCC(C)(C(=O)NS(=O)(=O)C3CC3)C2)cc1 (stereo unspecified)	/	-22	-1	3	/	-9	/	/
O=C(Nc1ccc(Br)cc1F)c1ccncc1	-4	-6	1	-1	0	/	i	-6
CN1C(=O)CON=C1c1cccc2ccccc12	/	-25	7	8	/	-18	/	/
CC(Sc1cccc(C(F)(F)F)c1)C(=O)NC(N)=O (stereo unspecified)	0	-21	-3	-2	5	14	i	-10
CCOC(=O)CCCSc1nc2sc(C)c(C)c2c(=O)[nH]1	-6	-14	0	4	8	10	i	-9
COc1cccc2sc3ccc(NCc4ccc5c(c4)OCO5)cc3c(=O)c12	12	-20	2	8	52*	-32	i	-7	eIF4H inh retest=51*;PABP polyA inh retest=32
Oc1ccc(-c2csc(Nc3cccc4ccccc34)n2)cc1O	8	-15	-2	-6	12	-4	i	8
Cc1ccc(CS(=O)(=O)c2ccc(C(=O)N3CCN(c4ccccn4)CC3)cc2[N+](=O)[O-])cc1	-7	/	-8	-19	2	38	i	46
COc1ccccc1CN1CC(C(=O)NCCc2ccc(C)o2)CCC1=O (stereo unspecified)	/	4	-2	5	/	-24	i	-17
CCCCn1c(N)c(N(CCC(C)C)C(=O)C2=NN(c3cc(C)ccc3C)C(=O)CC2)c(=O)[nH]c1=O	/	12	0	-1	/	-4	i	11
CCOC(=O)c1nc2ccccc2c(C)c1C	-2	-5	1	2	-4	-16	i	-5
CC1CCCCC12NC(=O)N(CC(=O)N1CCc3ccccc31)C2=O (stereo unspecified)	/	-17	-3	1	/	5	/	/
O=C(C[n+]1ccc(-c2ccccc2)cc1)Nc1ccc([N+](=O)[O-])cc1	-10	-5	-1	-2	4	-14	i	2
CC1(C(=O)NC2CCCCC2)CCC(=O)N1Cc1ccc2c(c1)OCO2 (stereo unspecified)	0	-10	-1	1	3	0	i	3
COc1ccc(NC(=O)COc2cccc3c2CCN(C)C3=O)c(OC)c1	0	-2	1	-3	1	2	i	-12
COc1ccc(NS(=O)(=O)c2cc(NC(=O)c3ccccc3F)ccc2N2CCCC2)cc1	12	/	-4	-11	2	2	i	43
O=C(NCCc1ccccn1)c1cc(C(=O)C2CCCCC2)c[nH]1	-7	-9	6	5	-8	-7	i	-8
O=C(CNCc1ccccc1)Nc1ccc(Cl)cc1	-11	-15	3	-3	-1	-9	i	-7
COc1cccc(CC(=O)NNC(=O)CN(C)S(=O)(=O)c2ccc(C)cc2)c1	/	-18	-1	0	/	/	/	8
O=[N+]([O-])c1ccc(Sc2cccc3cccnc23)c([N+](=O)[O-])c1	-3	-11	7	-9	3	/	i	17
CCc1nnc(NC(=O)CN2CCN(Cc3cccc(OC)c3)CC2)s1	12	-13	0	1	-8	-24	i	-1

Arranged by length of the SMILES (lowest first): part of the list above
SMILES	PABP polyA inh	UUG fidelity	MT1-MMP act inh	MT1-MMP act inh RFP	eIF4H inh	HIV Env fusion	Rce1 inh	CSC inhib	others
O=C(CNCc1ccccc1)Nc1ccc(Cl)cc1	-11	-15	3	-3	-1	-9	i	-7
CC1CCCCC12NC(=O)N(CC(=O)N1CCc3ccccc31)C2=O (stereo unspecified)	/	-17	-3	1	/	5	/	/
COc1ccc(NC(=O)COc2cccc3c2CCN(C)C3=O)c(OC)c1	0	-2	1	-3	1	2	i	-12
CCCCn1c(N)c(N(CCC(C)C)C(=O)C2=NN(c3cc(C)ccc3C)C(=O)CC2)c(=O)[nH]c1=O	/	12	0	-1	/	-4	i	11

Looked up by structure from the entries so far, six records:
SMILES	PABP polyA inh	UUG fidelity	MT1-MMP act inh	MT1-MMP act inh RFP	eIF4H inh	HIV Env fusion	Rce1 inh	CSC inhib	others
CC1(C(=O)NC2CCCCC2)CCC(=O)N1Cc1ccc2c(c1)OCO2 (stereo unspecified)	0	-10	-1	1	3	0	i	3
O=[N+]([O-])c1ccc(Sc2cccc3cccnc23)c([N+](=O)[O-])c1	-3	-11	7	-9	3	/	i	17
COc1ccc(NC(=O)COc2cccc3c2CCN(C)C3=O)c(OC)c1	0	-2	1	-3	1	2	i	-12
CCOC(=O)c1nc2ccccc2c(C)c1C	-2	-5	1	2	-4	-16	i	-5
Cc1ccc(CS(=O)(=O)c2ccc(C(=O)N3CCN(c4ccccn4)CC3)cc2[N+](=O)[O-])cc1	-7	/	-8	-19	2	38	i	46
O=C(C[n+]1ccc(-c2ccccc2)cc1)Nc1ccc([N+](=O)[O-])cc1	-10	-5	-1	-2	4	-14	i	2

Following part.
SMILES	PABP polyA inh	UUG fidelity	MT1-MMP act inh	MT1-MMP act inh RFP	eIF4H inh	HIV Env fusion	Rce1 inh	CSC inhib	others
COc1ccc(S(=O)(=O)N2CCCC2C(=O)n2nc(C)cc2C)cc1 (stereo unspecified)	4	/	-4	-3	30	11	i	3
O=c1[nH]c(C2CCCN(S(=O)(=O)c3ccccc3)C2)nc2c1nnn2Cc1ccccc1 (stereo unspecified)	14	/	-3	-6	5	-7	i	-3
CN(C)Cc1cc2ccccc2c2c1COC2	-9	58	-1	0	3	9	i	-8
O=C(NCC1CCCN(C(=O)c2cccc(C(F)(F)F)c2)C1)c1ccc(F)cc1 (stereo unspecified)	10	-4	1	1	0	10	i	0
CN(Cc1ccccc1)S(=O)(=O)c1ccc(NS(C)(=O)=O)cc1	0	3	-1	1	-12	-54	i	5
Cc1ccc(CNS(=O)(=O)c2ccc(CN3C(=O)c4cccnc4C3=O)s2)o1	11	-9	1	3	-11	-1	i	-20
CCOc1cccc(-c2cc(C(=O)Nc3ccon3)c3ccccc3n2)c1	-5	-13	-5	-5	-11	-2	i	5
NC(=O)C1=C[C@@H](c2ccc3c(c2)OCO3)C[C@@H](OCCCCO)O1	/	-8	-1	8	/	12	i	-6
O=C(Nc1ccc2c(c1)OCO2)C1CC(c2ccccc2O)=NO1 (stereo unspecified)	9	-11	4	-4	0	9	i	-8

This is a random part of the collection; any-hit rate near 2.9%.
